# Assay outcomes deposited in PubChem by several laboratories.
# CSC inhib = blocks cancer stem cells; cancer stem cell-like cells viability, luminescence; inhibition, % at 7.5 µM; AID 2717; 300,000 compounds, 1.1% hits;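 active means mean at 75% or more and at least half the replicates too; inconclusive means mean and replicates disagree; tested in HMLE shEcad cells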;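 further: 0% = median of negative and 100% = median of positive control wells; the first replicate is given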
# MT1-MMP act inh = MT1-MMP (human) activation inhibition; HT1080 RFP-PRO-GFP cells, GFP/RFP ratio fluorescence, overnight; percent of plate control window, DMSO zero; P50281; 360,000 compounds, 0.061% hits; GFP/RFP ratio change, % at 20 µM; AID 651647;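 active means GFP/RFP ratio change of at least 30% with cell ATP level not reduced by more than half and red fluorescence within 50% of control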; further: strong numbers were not always called active
#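 Read-out: GFP/RFP fluorescence ratio; Test system: RFP-PRO-GFP reporter HT1080 cells; Compound dosing: single-point 20 µM compound, 1% DMSO; Times: overnight compound exposure at 37 °C.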
# Env fusion inh = blocks HIV Env-driven cell-cell fusion; 360,000 compounds, 1.1% hits; HeLa-JRFL Env/CEM21 cell fusion, luciferase; inhibition, % at 12.3 µM;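 active means mean replicate inhibition score of at least 50 and every replicate individually at or above 50; inconclusive means only one of the two criteria met; inactive means mean below 50 and not all replicates reaching 50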;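 further: 0% = plate neutral controls and 100% = maraviroc near 300 nM; one replicate is shown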
# Yeast UUG start = yeast start codon fidelity modulation; AID 602363; S. cerevisiae UUG-firefly luciferase reporter, luminescence/redox ratio; 350,000 compounds, 0.13% hits; activity score, % at 18.7 µM;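 active means replicate mean at a twofold rise or more, about +100% in these data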;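 further: firefly luciferase made from a UUG start codon reports start codon fidelity; reporter light over untreated wells divided by growth signal over untreated wells; some hits fall short of that in this replicate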
# Rce1 inh = yeast Ras-converting enzyme inhibition; Q03530; yeast membranes, quenched prenylated peptide cleavage fluorescence; calls only; 290,000 compounds, 0.27% hits; AID 2563;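 active means fall in fluorescence gain of 50% or more versus controls, with final raw signal at or below 3038400; inconclusive means same 50% fall but final raw signal above 3038400; inactive means fall in fluorescence gain under 50%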;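 further: plate controls were neutral control wells for no effect and wells lacking membranes for full effect; tested at 10 µM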
# eIF4H FP inh = inhibitors of RNA binding by human eIF4H; inhibition, % at 35 µM; eIF4H fluorescence polarization binding assay; AID 2012; Q15056; 290,000 compounds, 0.94% hits;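 active means 50% or more with normal probe brightness, or confirmed in later tests; inconclusive means above 50% with abnormal brightness, or retests that disagree; inactive means below 50% or failed in later tests; about a fifth of its hits are not listed in these tables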;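 further: calls also rest on retests at 20 µM and on dose response follow-up; 0% = protein and probe with vehicle and 100% = probe without protein; strong numbers were not always called active; many hits fall short of the cut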
# PABP FP inh = blocks human PABP binding to poly(A) RNA. inhibition, % at 35 µM. fluorescence polarization. 290,000 compounds, 1% hits. AID 2014. P11940;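 active means 50% or more with normal probe brightness, or confirmed in later tests; inconclusive means above 50% with abnormal brightness, or retests that disagree; inactive means below 50% or failed in later tests; about a fifth of its hits are not listed in these tables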;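 further: calls also rest on retests at 20 µM and on dose response follow-up; controls were probe without protein and protein plus probe with vehicle; some compounds called inactive have numbers as strong as hits; many hits fall short of the cut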
# Target sequence (P11940 whole entry, looked up): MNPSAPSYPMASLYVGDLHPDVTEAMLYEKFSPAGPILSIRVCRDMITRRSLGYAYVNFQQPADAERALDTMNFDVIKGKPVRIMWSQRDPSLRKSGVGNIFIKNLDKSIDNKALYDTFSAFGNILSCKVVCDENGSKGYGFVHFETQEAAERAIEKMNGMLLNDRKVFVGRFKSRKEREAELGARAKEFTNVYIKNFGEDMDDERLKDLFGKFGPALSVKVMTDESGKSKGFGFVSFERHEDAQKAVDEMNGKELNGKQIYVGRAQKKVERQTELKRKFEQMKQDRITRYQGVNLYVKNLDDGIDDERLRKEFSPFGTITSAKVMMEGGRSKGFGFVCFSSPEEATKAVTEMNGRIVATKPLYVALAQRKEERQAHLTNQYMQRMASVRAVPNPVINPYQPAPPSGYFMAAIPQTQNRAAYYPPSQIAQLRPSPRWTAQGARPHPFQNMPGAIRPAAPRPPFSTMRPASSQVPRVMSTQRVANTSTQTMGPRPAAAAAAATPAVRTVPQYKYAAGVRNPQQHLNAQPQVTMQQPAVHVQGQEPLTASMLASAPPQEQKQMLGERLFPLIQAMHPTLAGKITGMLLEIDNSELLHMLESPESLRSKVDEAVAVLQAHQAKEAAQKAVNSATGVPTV
# MT1-MMP act inh RFP = second read-out of MT1-MMP act inh, no call of its own (marks repeat the call); RFP signal change, %; measured here: RFP expression control read;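 0 = vehicle wells; hits needed this value within 50% of zero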
# Active calls of the source: *; i = inactive; ? = inconclusive; / = not tested or not shown; & = joins results of further samples.
SMILES,CSC inhib,MT1-MMP act inh,MT1-MMP act inh RFP,Env fusion inh,Yeast UUG start,Rce1 inh,eIF4H FP inh,PABP FP inh
Cc1ccsc1/C=N/NC(=O)C(O)c1ccccc1 (stereo not given),-9,0,0,2,-9,i,-3,-8
CCCNC(=O)N1CCC(c2nc3ccccc3s2)CC1,-3,3,1,21,-22,i,-2,-8
CCc1ccc(-c2nnn(CC(=O)N(C3CCCC3)C3CCS(=O)(=O)C3)n2)cc1 (stereo not given),/,3,3,5,2,/,/,/
CNS(=O)(=O)c1cccc(C(=O)NC2CCCc3ccccc32)c1 (stereo not given),9,-1,4,15,-10,i,-4,-4
O=CN1CCC(=O)N(Cc2ccccc2)c2ccccc21,12,7,5,-56,-12,i,11,-4
CCOc1ccccc1NC(=O)CCC(=O)Nc1ccccc1OCC,-9,-6,-2,-33,-12,i,1,4
COC(=O)C1=C(C)n2cnnc2NC1c1ccc(Cl)cc1 (stereo not given),-20,-2,3,-18,-6,i,-10,-16
CCN(CC)S(=O)(=O)c1ccc(OC)c(NC(=S)Nc2cccc(C)c2C)c1,-6,0,5,0,/,i,8,-14
O=C(O)C(NS(=O)(=O)c1ccccc1)C(O)c1ccccc1 (stereo not given),0,-5,0,5,4,i,2,-4
CCCCC(=O)N1C/C=C\C(c2ccc(OC)cc2)N(Cc2ccc(F)cc2)C(=O)C1 (stereo not given),-4,0,2,-6,14,i,3,2
Cc1ccc(C(=O)N/C(=C\c2sccc2C)C(=O)NCc2ccco2)cc1,-6,/,/,/,-8,i,-5,1
CCc1cccc(OCCOC(=O)CNS(=O)(=O)c2ccc(NC(C)=O)cc2)c1,/,0,2,14,-13,/,/,/
COc1cc(/C=C2/S/C(=N/S(=O)(=O)Cc3ccccc3)NC2=O)c([N+](=O)[O-])cc1OC,0,-3,7,3,-18,i,1,4
CCCc1nc2c(sc3nc4c(cc32)COC(C)(C)C4)c(=O)n1CCN(CC)CC,0,0,1,7,-7,i,-3,5
C[C@H]1CN([C@@H](C)CO)C(=O)CCCn2cc(nn2)CO[C@@H]1CN(C)C(=O)Nc1ccccc1F,/,-1,4,-75,1&8,/,/,/
CCN(C(=O)COC(=O)C1CCN(S(=O)(=O)c2ccc(C)c(C)c2)CC1)C1CCCCC1,30,1,3,-1,-11,/,/,/
Cn1nc(-c2ccccc2)c2cc([N+](=O)[O-])ccc21,-2,2,3,-11,-5,i,13,5
Cc1c(C(=O)N2CCN(C)CC2)oc2c1C(=O)CC(C)(C)C2,-12,11,4,/,-8,i,5,2
Cc1cc(C)c2oc(-c3ccc(C)c(NC(=S)NC(=O)/C=C/c4ccco4)c3)nc2c1,34,9,-3,/,-12,i,-10,-1
Cc1cccc(NC(=O)c2cc(S(=O)(=O)N3CCOCC3)cn2C)c1C,/,-1,0,-9,-2,i,-24,-12
CN(C)c1nc(C#N)nc(N(C)C)n1,1,9,5,-3,-23,i,-13,43
Cn1cccc1/C=C1\SC(=S)N(NC(=O)c2ccc(F)cc2)C1=O,-1,-1,4,-47,/,i,?,?
CCc1ccc(NC(=O)C(=O)NNC(=O)c2cccs2)cc1,3,3,5,-17,-9,i,8,-2
O=C1CC(c2ccco2)CC(O)=C1C=NCC1NCCc2ccccc21 (stereo not given),-5,-6,8,-67,-8,i,?,?

# Record cards, as listed above. Screens in order: CSC inhib | MT1-MMP act inh | MT1-MMP act inh RFP | Env fusion inh | Yeast UUG start | Rce1 inh | eIF4H FP inh | PABP FP inh
# CCN(C(=O)COC(=O)C1CCN(S(=O)(=O)c2ccc(C)c(C)c2)CC1)C1CCCCC1 is listed with 30 | 1 | 3 | -1 | -11 | / | / | /
# Cc1cccc(NC(=O)c2cc(S(=O)(=O)N3CCOCC3)cn2C)c1C is listed with / | -1 | 0 | -9 | -2 | i | -24 | -12
# CN(C)c1nc(C#N)nc(N(C)C)n1 is listed with 1 | 9 | 5 | -3 | -23 | i | -13 | 43
# Cc1c(C(=O)N2CCN(C)CC2)oc2c1C(=O)CC(C)(C)C2 is listed with -12 | 11 | 4 | / | -8 | i | 5 | 2

# (list continues)
SMILES,CSC inhib,MT1-MMP act inh,MT1-MMP act inh RFP,Env fusion inh,Yeast UUG start,Rce1 inh,eIF4H FP inh,PABP FP inh
CCN(CC)CC(=O)NC12CC3CC(CC(C3)C1)C2,24,1,1,/,-14,i,-5,6
CCCCC(=O)N(C)c1c(CC)nc2c(OCCC)cccn12,/,-3,2,25,-4,/,/,/
COc1cc(/C=C/C(=O)OCC(=O)Nc2ccc(S(=O)(=O)N3CCCC3)cc2)ccc1O,6,8,2,-16,/,i,-1,-10
CC(C)NC(=O)C1(C)CCCCN1Cc1cccc(C(F)(F)F)c1 (stereo not given),/,-1,0,0,-16,/,/,/
O=C(Cn1nnc2ccccc2c1=O)Nc1ccc2c(c1)CCC2,2,2,-4,/,-10,i,-7,1
COc1ccc(C(=O)Nc2nccs2)cc1[N+](=O)[O-],-5,3,1,-29,-17,i,-3,4
COc1cc(N2CCCC2)ccc1[N+](=O)[O-],-6,14,5,-24,/,i,-2,19
Cc1ccccc1Cn1c(=N)n(CC(=O)c2ccc([N+](=O)[O-])cc2)c2ccccc21,24,-39,-2,8,/,/,4,-6
CN(C)C(CNC(=O)c1ccc(NC(=O)CC#N)cc1)c1ccccc1 (stereo not given),-4,-2,1,4,/,i,-4,2
N#CCCCn1c(=O)oc2ccccc21,2,-5,3,9,/,i,26,0
COc1ccc(C(=O)NC(CCSC)C(=O)NC2CC2)cc1 (stereo not given),0,-1,1,/,-14,/,/,/
COc1ccc(/C=C/C(=O)Oc2ccc(C)c(C)c2)cc1OC,-6,1,3,3,/,i,1,-4
Cc1c(C(=O)C(=O)N2c3ccc(F)cc3CCC2C)c2ccccc2n1C (stereo not given),63,6,-5,43,18,i,-5,-13
O=S(=O)(Nc1ccc(-n2cccc2)cc1)c1ccccc1,3,-2,0,-55,10,i,-3,-8
COc1cccc(C(=O)NNC(=O)c2ccccc2)c1,6,-1,2,3,-8,i,10,4
Cc1c(C(=O)N(C)CCCCN2CCOCC2)oc2c(F)cccc12,6,-2,1,2,0,i,7,-2
O=C(Nc1ccc(OCc2ccccc2)cc1)Nc1ccccc1C(=O)NCCCN1CCOCC1,25,-2,1,-8,/,i,-7,6
N#C/C(=C\c1ccccc1Br)C(=O)NC1CC1,-5,0,1,/,-15,i,38,-4
CCN(CC)C(=O)Cn1cnc2sc(C(=O)N3CCN(Cc4ccc5c(c4)OCO5)CC3)c(C)c2c1=O,-8,-2,-7,6,/,i,9,-1
CC(C)NC(=O)c1ccc(C2SCC(=O)N2Cc2ccccc2)cc1 (stereo not given),2,1,-1,4,-18,/,-2,11
O=C1NC(Cc2ccccc2)C(=O)N1CC(=O)N1CCCc2ccccc21 (stereo not given),-9,-22,50,6,-7,i,0,-2
Cc1ccc(C(C)C)c(OCC(=O)OCC(=O)NC2CCS(=O)(=O)C2)c1 (stereo not given),-2,-2,-2,12,-4,i,/,/
CN(c1cccc(NC(=O)CN(c2cccc(Cl)c2)S(=O)(=O)c2ccccc2)c1)S(C)(=O)=O,-2,0,-4,-29,-6,i,-8,3
CCN(C(=S)Nc1ccc(Oc2ccccc2)cc1)c1ccccc1,/,-2,-5,-5,-3,i,-7,-7

# Six entries from above, with two lines to a compound:
# Values run as follows: CSC inhib	MT1-MMP act inh	MT1-MMP act inh RFP	Env fusion inh	Yeast UUG start	Rce1 inh	eIF4H FP inh	PABP FP inh
> CCN(CC)C(=O)Cn1cnc2sc(C(=O)N3CCN(Cc4ccc5c(c4)OCO5)CC3)c(C)c2c1=O
    -8	-2	-7	6	/	i	9	-1
> CC(C)NC(=O)c1ccc(C2SCC(=O)N2Cc2ccccc2)cc1 (stereo not given)
    2	1	-1	4	-18	/	-2	11
> O=C1NC(Cc2ccccc2)C(=O)N1CC(=O)N1CCCc2ccccc21 (stereo not given)
    -9	-22	50	6	-7	i	0	-2
> Cc1ccc(C(C)C)c(OCC(=O)OCC(=O)NC2CCS(=O)(=O)C2)c1 (stereo not given)
    -2	-2	-2	12	-4	i	/	/
> CN(c1cccc(NC(=O)CN(c2cccc(Cl)c2)S(=O)(=O)c2ccccc2)c1)S(C)(=O)=O
    -2	0	-4	-29	-6	i	-8	3
> CCN(C(=S)Nc1ccc(Oc2ccccc2)cc1)c1ccccc1
    /	-2	-5	-5	-3	i	-7	-7

# Further entries:
SMILES,CSC inhib,MT1-MMP act inh,MT1-MMP act inh RFP,Env fusion inh,Yeast UUG start,Rce1 inh,eIF4H FP inh,PABP FP inh
C/C(=N/NC(=O)c1ccncc1)c1c[nH]c2ccccc12,-2,-1,5,10,/,i,5,-7
O=C(O)CCn1cc(/C=C\C(=O)c2ccc(Cl)cc2)c(-c2cccc(Br)c2)n1,55,7,-5,-13,-19,i,5,-1
O=C(C1CCC(=O)N(C2CCCC2)C1)N1CCN(Cc2cccc(F)c2)CC1 (stereo not given),-1,0,0,0,-18,i,-13,-2
COc1ccc(N/C=C/C(=O)c2ccc(Cl)cc2)cc1,11,4,3,-131,/,i,4,2
Cc1ccc(OCC(=O)Nc2ccncc2)c(C)c1,0,0,-19,24,-11,/,-5,6
COc1cc(/C=C/C(=O)OCC(=O)Nc2cc(S(=O)(=O)N(C)C)ccc2Cl)ccc1O,1,5,1,1,6,i,4,0
O=C(C1CCCO1)N1CCC(c2nc3ccccc3[nH]2)CC1 (stereo not given),-5,4,4,/,0,i,7,24
CCN(CC)C(=O)Cn1cc(C(=O)C(=O)N2CCN(Cc3ccc4c(c3)OCO4)CC2)c2ccccc21,-5,-1,4,5,-6,i,-13,-14

# Some of the entries so far, with each value named.
CCN(CC)C(=O)Cn1cc(C(=O)C(=O)N2CCN(Cc3ccc4c(c3)OCO4)CC2)c2ccccc21
- CSC inhib = -5
- MT1-MMP act inh = -1
- MT1-MMP act inh RFP = 4
- Env fusion inh = 5
- Yeast UUG start = -6
- Rce1 inh = i
- eIF4H FP inh = -13
- PABP FP inh = -14

C/C(=N/NC(=O)c1ccncc1)c1c[nH]c2ccccc12
- CSC inhib = -2
- MT1-MMP act inh = -1
- MT1-MMP act inh RFP = 5
- Env fusion inh = 10
- Yeast UUG start = /
- Rce1 inh = i
- eIF4H FP inh = 5
- PABP FP inh = -7
